ALR inh: inhibitors of human ALR sulfhydryl oxidase, primary screen, biochemical, H2O2 detection, HRP-luminol luminescence, single point; purified ALR, DTT oxidation; inhibition, % (concentration not given with the values); hit rate 3.8% among 290,000; AID 485317, 2010;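 active = mean and each replicate at 75% or more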;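 also: stock transfer was 7.5 nL into about 7.5 µL; 0% = neutral wells and 100% = wells with inactivated enzyme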
FGF22 binding: binders of human FGF22 protein, primary screen, FGF22 synaptogenesis inhibitor project, biophysical, thermal shift, single point; recombinant FGF22 thermal shift, SYPRO orange fluorescence; percent of sucrose octasulfate shift, DMSO zero; Fibroblast growth factor 22 (Homo sapiens), Q9HCT0; calls only at 9.99 µM; hit rate 1.5% among 340,000;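 active = melting point raised past a set limit in the mean and every replicate; three in four hits are not shown here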
Target sequence (Q9HCT0 whole entry, looked up): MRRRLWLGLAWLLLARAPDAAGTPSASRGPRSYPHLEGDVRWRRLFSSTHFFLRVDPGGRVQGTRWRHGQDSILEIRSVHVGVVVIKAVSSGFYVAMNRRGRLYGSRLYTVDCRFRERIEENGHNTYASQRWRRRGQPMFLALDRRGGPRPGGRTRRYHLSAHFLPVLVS
E coli growth: E. coli growth inhibition, primary screen, OD600 | Escherichia coli growth, 23 h; stronger effect = lower value | hit rate 0.21% among 330,000 | AID 1053175, 2014 | OD600 absorbance (no concentration beside the values);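 active = OD600 absorbance below the run mean of sample wells minus 3.6 SD, in any replicate, cut at about 0.56 in these data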;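 also: stock transfer was 300 nL into about 60 µL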
Ecoli rRNA inh: reduced GFP signal of wild-type E. coli, primary screen, bacterial rRNA inhibitor project, GFP/RFP fluorescence, OD600, single point; E. coli WT GFP vs humanized-ribosome RFP mutants, 24 h; stronger effect = lower value; DMSO median 0, no signal -100; hit rate 1.6% among 350,000; GFP signal change (wild-type ribosome), % (concentration not given with the values);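 active = significant combined selectivity score with lowered wild-type GFP, culture density cut under 30%, mutant RFP and density less affected; inactive = any of these conditions unmet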; also: one replicate is shown; some compounds called inactive have numbers as strong as hits
UCH37 DUB inh: inhibitors of human UCH37 deubiquitinase, primary screen, biochemical, Ub-AMC cleavage, fluorescence; inhibition, % (no concentration beside the values); Ubiquitin carboxyl-terminal hydrolase isozyme L5 (Homo sapiens), Q9Y5K5; AID 588478, 2011; purified proteasome/UCH37; hit rate 0.33% among 330,000;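 active = mean of two replicates above 20%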;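 also: 0% = compound-free wells with enzyme and 100% = wells lacking proteasome; stock transfer was 100 nL into about 20 µL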
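Signal – fluorescence, ex 355 nm, em 460 nm · System – Proteasome-bound UCH37 · Input – 0.15 nM proteasome as dispensed · Timing – 30 min preincubation with enzyme, 25 min cleavage at room temperature · Read-out basis – percent inhibition of cleavage signal versus uninhibited and no-proteasome wells · Medium – Tris-HCl pH 7.4 with ATP-MgCl2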
HNF4A DNA FP: change in binding of human HNF4A to DNA, primary screen, biochemical, fluorescence polarization, FITC-DNA; Hepatocyte nuclear factor 4-alpha (Homo sapiens), P41235; hit rate 0.3% among 360,000; 1 h; activity change, % at 10 µM; in the data active = activity change above about 30%, passing the limit was not always enough;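 also: controls were the assay level and a saturating level of protein; the project sought stronger binding though the title names inhibitors; some compounds called inactive have numbers as strong as hits; positive values seem to mean higher polarization but the record does not say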
Target sequence (P41235 whole entry, looked up): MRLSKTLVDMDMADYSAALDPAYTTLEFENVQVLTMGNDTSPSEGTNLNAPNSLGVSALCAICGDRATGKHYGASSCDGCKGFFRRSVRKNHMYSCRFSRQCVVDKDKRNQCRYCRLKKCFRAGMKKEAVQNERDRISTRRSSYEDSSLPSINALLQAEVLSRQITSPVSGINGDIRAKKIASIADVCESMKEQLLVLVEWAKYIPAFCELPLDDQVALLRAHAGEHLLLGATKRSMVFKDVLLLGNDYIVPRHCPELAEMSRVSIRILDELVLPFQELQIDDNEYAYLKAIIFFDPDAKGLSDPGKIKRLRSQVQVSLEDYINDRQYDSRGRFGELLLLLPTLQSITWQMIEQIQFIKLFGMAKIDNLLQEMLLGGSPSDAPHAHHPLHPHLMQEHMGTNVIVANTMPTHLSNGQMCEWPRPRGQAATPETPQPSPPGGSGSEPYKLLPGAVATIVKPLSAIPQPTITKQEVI
B2AR ag: beta2AR agonists driving receptor internalization, primary screen, cell-based, FAP fluorogen, flow cytometry | Beta-2 adrenergic receptor (Homo sapiens), P07550 | Am2.2-beta2AR cells; reference of the scale not given here | response, % (no concentration beside the values) | hit rate 0.43% among 340,000 | AID 504454, 2011;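 active = response above a set limit, near 3 SD of response in nonfluorescent compounds, cut at about 42% in these data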;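 also: stock transfer was 100 nL into about 11 µL; a reference agonist was the positive control; negative values mostly stem from fluorescent compounds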
Target sequence (P07550 whole entry, looked up): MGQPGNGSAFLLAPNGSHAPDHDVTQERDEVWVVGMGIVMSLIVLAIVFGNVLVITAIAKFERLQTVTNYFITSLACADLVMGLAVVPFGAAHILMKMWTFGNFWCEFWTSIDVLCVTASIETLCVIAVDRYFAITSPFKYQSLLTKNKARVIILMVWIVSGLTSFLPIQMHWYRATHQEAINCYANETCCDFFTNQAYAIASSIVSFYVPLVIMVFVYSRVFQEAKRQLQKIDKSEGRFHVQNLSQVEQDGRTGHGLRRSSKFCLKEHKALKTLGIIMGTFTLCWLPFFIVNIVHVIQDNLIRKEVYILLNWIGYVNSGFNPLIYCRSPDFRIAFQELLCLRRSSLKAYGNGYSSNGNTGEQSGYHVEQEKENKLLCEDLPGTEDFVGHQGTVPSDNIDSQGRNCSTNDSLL
Ecoli rRNA inh OD600: second read-out of Ecoli rRNA inh, no call of its own (marks repeat the call); OD600 change, %; measured here: OD600 growth;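 optical density of the mix in the first replicate; 0 = DMSO median and -100 = no signal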
Ecoli rRNA inh RFP: also measured in Ecoli rRNA inh; calls as there; RFP signal change, %; measured here: RFP humanized mutant strains;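 first replicate; 0 = DMSO median and -100 = no signal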
Active calls of the source: *; i = inactive; x = not tested or not shown. The list is partial; count on the stated rates, not on these rows.

SMILES | ALR inh | FGF22 binding | E coli growth | Ecoli rRNA inh | Ecoli rRNA inh OD600 | Ecoli rRNA inh RFP | UCH37 DUB inh | HNF4A DNA FP | B2AR ag
CSCc1ccc(C(=O)N2CCC(N3CCC(C(=O)NC(C)C)CC3)CC2)o1 | -5 | i | 0.67 | 10 | 7 | 0.4 | -7.7 | 0.1 | -3
Cc1ccc(-n2c(SCc3cc(=O)n4ccsc4n3)nnc2-c2cccnc2)c(C)c1 | 1 | i | 0.69 | 4 | -1 | -4.0 | 3.3 | -3.3 | -6
COc1ccc(OCCCC(=O)Nc2ccc(S(=O)(=O)N3CCOCC3)cc2)cc1 | -3 | i | 0.66 | x | x | x | -0.7 | -0.8 | 17
COc1ccc(-n2c(C)c(C(C)=O)c3cc(OC(C)=O)ccc32)cc1 | 28 | x | 0.67 | -24* | -18* | -3.2* | 1.0 | -2.4 | 4
Nc1nc(NC(=O)c2cccc(S(=O)(=O)N3CCCCCC3)c2)nc(-c2ccccc2)n1 | -4 | x | 0.75 | x | x | x | -0.3 | -2.0 | -2
Cn1nnnc1SCC(=O)Nc1ccc(Oc2ccc(Cl)cc2)cc1 | -12 | i | 0.72 | 6 | 2 | -8.1 | 4.5 | -4.8 | -1
COc1cc([N+](=O)[O-])ccc1NC(=O)/C=C\C(=O)O | -3 | i | 0.68 | 1 | 4 | -4.7 | 14 | 2.0 | -1
COc1ccc(N2CCN(C3CCCN(Cc4ccc(F)c(F)c4)C3)CC2)cc1 (stereo not drawn) | 41 | i | 0.63 | 0 | -2 | -2.1 | 1.9 | 0.8 | 4
Cc1ccc([C@@H]2C[C@H]3[C@@H](CN2S(=O)(=O)c2ccc(Cl)cc2)C(=O)C[C@@H](c2cccc4ccccc24)N3S(=O)(=O)c2ccc(C)cc2)cc1 | x | i | x | 20 | 17 | 2.9 | x | -2.8 | x
CCCCNC(=S)Nc1ccc(F)cc1 | -3 | i | 0.62 | 4 | 0 | 0.9 | 0.3 | 1.4 | -5
COc1ccc(N(CC(=O)N2CCN(c3ccccc3)CC2)S(=O)(=O)c2c(C)noc2C)cc1 | x | i | 0.77 | 3 | -3 | -0.4 | 2.0 | -0.2 | -8
Cc1nn(Cc2ccccc2)c(C)c1NC(=O)c1cc(-c2ccco2)on1 | -1 | x | 0.73 | x | x | x | -1.0 | 3.8 | -7
CN(CC(=O)Nc1ccccc1F)S(=O)(=O)c1ccc2c(c1)n(C)c(=O)c(=O)n2C | -6 | i | 0.71 | 7 | 9 | -6.3 | -0.3 | -0.7 | -4
CCN(CC)S(=O)(=O)c1ccc(OC)c(NC(=O)C2CC(=O)N(c3ccc4c(c3)OCCO4)C2)c1 (stereo not drawn) | -1 | i | 0.64 | -12 | -4 | 1.3 | -0.6 | -3.8 | -5
COc1ccc(CN2C(=O)c3cccnc3C2O)cc1 (stereo not drawn) | 16 | x | 0.69 | x | x | x | 5.8 | -1.3 | 2
Cc1cc(C)nc(SCC(=O)N/N=C/c2ccc3c(c2)OCO3)n1 | -16 | i | x | 7 | 17 | -2.8 | x | -0.1 | -4
COc1ccc(CCC(=O)N2CCN(C(=O)c3ccccc3)CC2)cc1 | -7 | i | 0.65 | 8 | 12 | -2.0 | -2.3 | -1.1 | 0
O=C(CSc1nc(NS(=O)(=O)c2ccccc2)cc(=O)[nH]1)Nc1cccc(C(F)(F)F)c1 | x | i | 0.67 | 3 | 15 | -1.1 | 8.4 | 2.0 | -4
CC(C)(C)C(=O)Cn1ncc(Cl)c(Cl)c1=O | x | i | 0.67 | 8 | 14 | 4.2 | -0.5 | -3.1 | 7
CCN(CC)S(=O)(=O)c1cccc(C(=O)NCC2CCCO2)c1 (stereo not drawn) | 1 | x | 0.66 | 24 | 12 | 1.9 | 1.8 | 3.7 | 9
CC(C)(C)OC(=O)NCCCCCNC(=O)c1nc[nH]c1C(=O)NCc1ccc(CNC(=O)OC(C)(C)C)cc1 | -5 | i | 0.72 | -1 | -31 | 14 | -0.4 | 1.0 | 22
Cc1cccc(S(=O)(=O)NC(=O)C2(C)CCN2C(=O)c2ccccc2CCc2ccccc2)c1 (stereo not drawn) | x | i | x | -50* | -45* | -9.6* | x | 1.6 | x
CC(NC(=O)COC(=O)c1ccc(N2CCCC2=O)cc1)c1ccc(F)cc1 (stereo not drawn) | x | i | 0.67 | 9 | 14 | 1.4 | 1.1 | 0.4 | -5
O=C(Nc1cccc(-n2cccn2)c1)C1CCCN(Cc2ccc(C#CCCO)cc2)C1 (stereo not drawn) | -1 | i | 0.72 | -5 | 3 | 0.3 | 3.0 | 3.3 | -5
Cc1ccc(-c2nn(-c3ccccc3)cc2C2CC(c3cccs3)=NN2C(=O)CCCC(=O)O)cc1 (stereo not drawn) | -2 | x | 0.68 | x | x | x | -14 | 0.5 | 69*

Brought forward from above: four compounds; new compounds follow.
SMILES | ALR inh | FGF22 binding | E coli growth | Ecoli rRNA inh | Ecoli rRNA inh OD600 | Ecoli rRNA inh RFP | UCH37 DUB inh | HNF4A DNA FP | B2AR ag
Cc1cccc(S(=O)(=O)NC(=O)C2(C)CCN2C(=O)c2ccccc2CCc2ccccc2)c1 (stereo not drawn) | x | i | x | -50* | -45* | -9.6* | x | 1.6 | x
CC(NC(=O)COC(=O)c1ccc(N2CCCC2=O)cc1)c1ccc(F)cc1 (stereo not drawn) | x | i | 0.67 | 9 | 14 | 1.4 | 1.1 | 0.4 | -5
O=C(Nc1cccc(-n2cccn2)c1)C1CCCN(Cc2ccc(C#CCCO)cc2)C1 (stereo not drawn) | -1 | i | 0.72 | -5 | 3 | 0.3 | 3.0 | 3.3 | -5
Cc1ccc(-c2nn(-c3ccccc3)cc2C2CC(c3cccs3)=NN2C(=O)CCCC(=O)O)cc1 (stereo not drawn) | -2 | x | 0.68 | x | x | x | -14 | 0.5 | 69*
O=C(N/N=C/c1ccc(N2CCOCC2)s1)c1ccc(O)cc1 | x | i | x | -11 | -4 | 6.7 | x | 0.7 | x
CCCCN(CC)C(=O)Cn1nc(Cc2ccncc2)c2ccccc2c1=O | 4 | i | 0.67 | 2 | 5 | -1.4 | 0.4 | -0.5 | -13
O=C(Nc1ccc(OC(F)(F)F)cc1)N1CCN(c2ccnc3cc(Cl)ccc23)CC1 | -8 | i | x | -29* | -22* | 0.5* | x | 4.0 | 2
CCn1c(=O)n(CC)c2cc(S(=O)(=O)N3CCc4ccccc43)ccc21 | -22 | x | 0.69 | x | x | x | 2.3 | -0.4 | -17
COC(=O)C1(C)NC(c2cccc(C)c2)C2C(=O)N(c3ccccc3)C(=O)C21 (stereo not drawn) | x | i | x | 4 | 7 | -0.7 | x | -2.4 | x
COc1ccc(S(=O)(=O)N2CCOC2CNC(=O)C(=O)NCCCn2ccnc2)cc1OC (stereo not drawn) | -2 | i | 0.71 | 4 | 17 | -2.1 | 2.8 | 0.0 | -7
CCN(CC)C(=O)C1=C(C)N(Cc2ccc(C(C)(C)C)cc2)C(=O)C(CC(=O)NCCCCc2ccccc2)C1 (stereo not drawn) | x | i | x | 0 | -6 | -2.8 | x | -1.3 | x
CC(C)(C)OC(=O)C[C@@H]1C/C=C\C[C@@H](CC(=O)N(CCO)Cc2ccccc2)C(=O)N[C@H](C(C)(C)C)COC1=O | -9 | i | x | 5 | -5 | 8.8 | -2.2 | 1.5 | -6
O=S(=O)(Cc1ccc(Cl)cc1)c1ncc(CO)n1Cc1ccccc1 | -4 | i | 0.68 | -26 | -24 | -0.8 | -3.4 | 2.2 | 14
CCn1c(SCC(=O)NC2CCCCC2)nnc1C(C)NC(=O)c1ccccc1F (stereo not drawn) | 7 | i | 0.68 | 1 | 11 | -1.8 | 2.7 | -1.4 | -5
C/C(=N\Nc1ccccc1)c1cc2ccccc2oc1=O | 93* | i | x | 11 | 9 | -0.1 | x | -1.5 | 1
Cc1nc2ccc(NC(=O)NC(=O)c3c(Cl)cccc3Cl)cc2o1 | -3 | i | 0.71 | 14 | 12 | 1.1 | 7.4 | 1.6 | 1
Fc1ccc(-c2nc3ccc(Br)cn3c2Cc2cccc(Cl)c2)cc1 | x | i | x | -36 | -52 | 2.1 | x | 12 | x
COc1ccc(-c2cc(C(=O)Nc3sc4c(c3C#N)CCCC4)c3ccccc3n2)cc1 | 10 | i | 0.7 | 5 | -1 | -3.0 | -45 | 3.5 | -4
CCN(CC)S(=O)(=O)c1ccc(NC(=O)Cn2c(=O)oc3ccccc32)cc1 | x | x | 0.69 | x | x | x | 0.2 | 2.8 | -8
FC(F)(F)c1ccccc1/C=N/n1c(COc2ccccc2)n[nH]c1=S | -6 | i | x | -7 | -18 | 0.5 | x | 4.9 | 9
CCN(CC)c1ccc(/C=N/Nc2nc(C)cc(=O)[nH]2)c(O)c1 | 58 | i | x | -19 | -19 | 4.6 | x | -1.0 | 2
Cc1cc(NC(=O)Cc2cccs2)nn1CC(=O)NCc1ccco1 | 3 | x | 0.73 | x | x | x | 0.5 | 2.8 | 0
CCCc1nc2sc3c(=O)n(N)cnc3c2c2c1COC(C)(C)C2 | 21 | x | 0.68 | x | x | x | 2.0 | x | x
O=C(Oc1cccc(C(=S)N2CCOCC2)c1)c1ccc([N+](=O)[O-])cc1[N+](=O)[O-] | 20 | i | 0.66 | -13 | -5 | -3.7 | 7.9 | 0.4 | 2
CN(C(=O)COC(=O)CCC(=O)c1ccccc1)c1c(N)n(Cc2ccccc2)c(=O)[nH]c1=O | -4 | i | 0.71 | 0 | 0 | -1.3 | 0.5 | -1.6 | 1
Cc1ccc(-c2nnc(N3CCOCC3)c3ccccc23)cc1S(=O)(=O)NCc1cccnc1 | 1 | i | 0.64 | -13 | -16 | -4.7 | 2.3 | -1.7 | 0
CCOc1ccc(S(=O)(=O)N2CCC(C(=O)NCc3ccncc3)CC2)cc1C | -1 | i | 0.69 | 5 | 2 | -1.0 | 4.1 | -0.3 | -15
CN(C(=O)c1cc2c(s1)-c1ccccc1S(=O)(=O)C2)c1ccccc1F | -7 | i | 0.69 | -13 | -10 | 2.0 | 5.6 | 2.1 | 15
CCCCN(C)C(=O)CS(=O)(=O)Cc1nc(-c2cccc(OC)c2)oc1C | 99* | i | 0.75 | -3 | -8 | -0.7 | 1.5 | -2.2 | -1
Cc1cc(C)n2ncc(S(=O)(=O)c3ccccc3)c2n1 | -3 | x | 0.69 | 10 | 6 | 0.8 | -24 | 4.2 | -1
COc1ccc(OC)c(C2N(c3ccccn3)C(=O)C3CCCN32)c1 (stereo not drawn) | -24 | x | 0.66 | x | x | x | 1.9 | 1.4 | -2
Cc1ccc(NS(=O)(=O)c2cccc(C(=O)N3CCCCC3)c2)cc1 | 2 | i | 0.69 | 5 | -28 | -2.4 | 3.2 | 3.1 | -3

Some entries already given, reduced to Ecoli rRNA inh, HNF4A DNA FP and E coli growth.
SMILES	Ecoli rRNA inh	HNF4A DNA FP	E coli growth
CCN(CC)C(=O)C1=C(C)N(Cc2ccc(C(C)(C)C)cc2)C(=O)C(CC(=O)NCCCCc2ccccc2)C1 (stereo not drawn)	0	-1.3	x
CC(C)(C)OC(=O)C[C@@H]1C/C=C\C[C@@H](CC(=O)N(CCO)Cc2ccccc2)C(=O)N[C@H](C(C)(C)C)COC1=O	5	1.5	x

Source: PubChem
